Cruzain noTriton: cruzain (T. cruzi) inhibition without detergent; P25779; purified cruzain, Z-FR-AMC fluorescence, no detergent; Potency, µM, for the others: max response, negative = inhibition, usual class: inhibitors; 200,000 tested, 2.3% active; AID 1476; active = well fitted curve in the direction sought with a large enough effect; inconclusive = small, poorly fitted or top-dose-only effect, or another doubt; inactive = no such curve, though single readings can be large; an effect the other way counts as inactive or inconclusive;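 note: plate controls were enzyme without inhibitor for no effect and buffer without enzyme for full effect; nearly all actives have a fitted effect of over 40% in size; top concentration of the series not given in the record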
Target sequence (P25779 123-467 limits assumed): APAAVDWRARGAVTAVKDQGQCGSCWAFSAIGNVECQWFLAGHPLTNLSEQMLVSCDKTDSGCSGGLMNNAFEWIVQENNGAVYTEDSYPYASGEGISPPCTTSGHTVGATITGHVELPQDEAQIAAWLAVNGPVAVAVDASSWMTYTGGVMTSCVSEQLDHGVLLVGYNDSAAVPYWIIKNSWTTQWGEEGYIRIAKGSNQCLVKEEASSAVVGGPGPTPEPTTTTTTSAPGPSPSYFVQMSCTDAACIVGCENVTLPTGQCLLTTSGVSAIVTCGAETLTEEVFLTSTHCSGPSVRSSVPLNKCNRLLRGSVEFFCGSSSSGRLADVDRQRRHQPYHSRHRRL
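Purified cruzain at 1.5 nM, pre-incubated 15 min with compound at room temperature in 100 mM sodium acetate pH 5.5, 5 mM DTT, 0.00005% Triton X-100. Reaction started with 2 uM Z-FR-AMC; AMC fluorescence increase over 60 s gives rate.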
StopGo reporter: FMDV 2A StopGo reporter, luciferase signal. 410,000 tested, 1.2% active. human cells with a luciferase reporter of 2A StopGo recoding; control for the full effect not named in the record. Potency, µM (doses to about 57.9 µM), without a hit: at the top dose signal change, negative = less light. AID 1159524; active = well fitted falling curve with a large enough effect; inconclusive = small, poorly fitted or top-dose-only effect; inactive = no such curve, though single readings can be large or run the other way; tested in HEK293T cells; note: % is set by controls: 0 for no effect and ±100 for the full control effect; nearly all actives have a fitted effect of over 45% in size; luciferase light after 4 h
NS1 function inh: influenza NS1 inhibition | Potency, µM (top dose mostly 46.1 µM), without a hit: at the top dose activity, positive = more growth | 270,000 tested, 0.4% active | S. cerevisiae slowed by influenza A NS1, growth recovery by OD600; note: actives are rising curves; nearly all actives have a fitted effect of over 50% in size
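In this qHTS, NS1 from influenza A is expressed in budding yeast, where it slows growth. Cells are switched from glucose to 2% galactose medium (pH 6.0, -URA), treated with compound, and growth recovery is read at OD600.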
SARS PLP yeast: SARS-CoV PLP inhibition in yeast. S. cerevisiae expressing SARS-CoV PLpro, growth rescue; control for the full effect not named in the record. Potency, µM (top dose mostly 32.9 µM), inactives show top-dose activity, positive = growth rescue. 330,000 tested, 0.19% active. AID 485353; note: 0% is about no effect; nearly all actives have a fitted effect of over 55% in size; growth read by luminescence after 48 h
MARV entry inh: blocks Marburg virus binding to or entry into cells. Marburg virus pseudotyped entry inhibition, cell reporter; control for the full effect not named in the record; about a third of the inactives were read at about 46 µM. Potency, µM (titrated, usually from 37.8 µM), inactives show at the top dose activity change, negative = inhibition, most hits filed as inhibitors. 300,000 tested, 1.8% active. AID 540276; active = well fitted inhibition curve with a large enough effect; inconclusive = small, poorly fitted or top-dose-only effect, or effect the other way; inactive = flat fitted curve, though single readings scatter; tested in HEK293 cells; about a fifth of its hits are not listed in these tables; note: % is set by controls: 0 for no effect and ±100 for the full control effect; luciferase read-out
RE007 growth inh: less growth of the S. pombe RE007 Vpr strain; AID 651644; Potency, µM (doses to about 92.2 µM), for the others: top-dose activity change, negative = less growth; 360,000 tested, 0.21% active; S. pombe RE007 Vpr strain, BacTiter-Glo ATP luminescence, 24 h; control for the full effect not named in the record; active = well fitted falling curve with a large enough effect; inconclusive = small, poorly fitted or top-dose-only effect; inactive = no such curve, though single readings can be large or run the other way;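 note: % is set by controls: 0 for no effect and ±100 for the full control effect; nearly all actives have a fitted effect of over 50% in size; the assay follows cell death caused by Vpr and the record does not say whether a fall means rescue or toxicity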
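Fission yeast strain RE007, carrying one chromosomally integrated HIV-1 vpr copy, was seeded at OD 0.01 in PMG+AL medium with 23 nL pinned compound. After 24 h at 30 °C and 99% humidity, viability was read by BacTiter-Glo luminescence.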
Lassa entry inh: blocks Lassa virus binding to or entry into cells | Lassa virus pseudotype entry inhibition, cell reporter; control for the full effect not named in the record | Potency, µM (series often up to 37.9 µM), without a hit: at the highest dose activity change, negative = inhibition, usual class: inhibitors | 300,000 tested, 1.2% active | AID 540256; active means well fitted inhibition curve with a large enough effect; inconclusive means small, poorly fitted or top-dose-only effect, or effect the other way; inactive means flat fitted curve, though single readings scatter; tested in HEK293 cells; note: % is set by controls: 0 for no effect and ±100 for the full control effect; nearly all actives have a fitted effect of over 50% in size; luciferase read-out
Cruzain Triton: cruzain (T. cruzi) inhibition with detergent | P25779 | purified cruzain, Z-FR-AMC fluorescence, 0.01% Triton | Potency, µM, for the others: max response, negative = inhibition, usual class: inhibitors | 200,000 tested, 0.43% active; active = well fitted curve in the direction sought with a large enough effect; inconclusive = small, poorly fitted or top-dose-only effect, or another doubt; inactive = no such curve, though single readings can be large; an effect the other way counts as inactive or inconclusive;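 note: plate controls were neutral wells for no effect and buffer without enzyme for full effect; nearly all actives have a fitted effect of over 40% in size; top concentration of the series not given in the record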
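Steps: dispense cruzain (1.5 nM final) in acetate buffer pH 5.5 with DTT and 0.01% Triton X-100; pin-transfer compounds; incubate 15 min RT; add Z-FR-AMC (2 uM final); read fluorescence every 30 s, using the 60 s intensity change.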
Starred values were filed as active, the others as inactive; ? = inconclusive; . = no result given; & = joins results of further samples; [ ] = remark or other dose. Unless noted, calls come from the whole dose curve; as a rule, active means well fitted rising curve with a large enough effect; inconclusive means small, poorly fitted or top-dose-only effect; inactive means no such curve, though single readings can be large or run the other way. Potency is the fitted concentration of half-maximal effect. Compounds were not picked by outcome (roughly 4.7% active in at least one column).

SMILES	Cruzain noTriton	StopGo reporter	NS1 function inh	SARS PLP yeast	MARV entry inh	RE007 growth inh	Lassa entry inh	Cruzain Triton
COc1cccc(CNC(=O)C2CC(=O)N(C3CCCCCCC3)C2)c1 (configuration not stated)	.	23%	-12%	?	.	-5%	.	.
Cc1cccc(NC(=S)N(C)Cc2cn(C)c3ccccc23)c1	-2%	6%	-4%	-35%	-5%	-2%	?	-6.1%
CCc1ccc(NS(=O)(=O)c2cccc3nsnc23)cc1	.	16%	-1%	6%	?	-13%	2%[46.1 µM]	.
CCCCc1c(C)c2ccc(OCC(C)=O)cc2oc1=O	13%	27%	-73%	-4%	0%&0%	-14%	-20%	-15%
Cc1cc(NC(=O)COC(=O)C(Nc2ccc(C(F)(F)F)cc2Cl)C(C)C)no1 (configuration not stated)	18%	?	-60%	-30%	?	-24%	?	-14%
COc1cc(C(=O)N2C[C@H]3C[C@@H](C2)c2cccc(=O)n2C3)cc(OC)c1OC	.	-13%	-4%	-1%	.	6%	.	.
Cc1ccc(S(=O)(=O)N2CCN(Cc3cc(=O)n4nc(-c5ccccc5Cl)sc4n3)CC2)cc1	3%	34%[activator]	.	.	.	.	?	3.1%
COC(=O)c1cncc(O)c1	2%	0%	10%	-8%	-5%	6%	-2%	5.6%
CCSc1ncc(Cl)c(C(=O)Nc2ccccc2)n1	-3%	-19%	6%	26%	12%	-15%	6%	0.9%
COc1cc(SC)ccc1C(=O)N(Cc1ccccc1)c1ccccc1	.	19%	-62%	-10%	?	16%	-4%[46.1 µM]	.
Nc1c(Nc2ccccc2)c2ccccc2oc1=O	-15%	?	-62%	-15%	-16%	6%	7%	-15%
O=C(NNC(=S)NC(=O)c1ccco1)c1ccc(F)cc1	.	-3%	-99%	-4%	.	1%	.	.
O=c1c2sccc2nc(SCc2cc(=O)n3cc(Br)ccc3n2)n1Cc1ccccn1	.	18%	.	-6%	?	79%	-25%	.
O=C1NC(Cc2c[nH]c3ccccc23)C(=O)N1c1ccc(F)cc1 (configuration not stated)	-1%	-12%	12%	4%	-20%[46.1 µM]	15%	-2%	0.7%
Cc1ccc(C(=O)N2CCCC2)c(F)c1F	4%	12%	-5%	12%	13%	19%	26%	4.4%
O=C(Nc1ccc(N2CCOCC2)nc1)c1c(F)cccc1F	.	42%[activator]	0%	2%	?	-11%	17%	.
Cc1cc(Cl)c(S(=O)(=O)Nc2cc(S(=O)(=O)N3CCOCC3)ccc2F)cc1OCC(N)=O	.	-8%	-2%	-1%	.	4%	.	.
O=C(NCCCn1ccnc1)c1cc2c(s1)CCCCC2	-3%	2%	-4%	1%	-15%	10%	-16%	0.7%
COc1nc(C)nc2c1sc(=S)n2C	-9%	-5%	-4%	6%	7%[46.1 µM]	12%	23%	1.4%
CN(C)c1ccc(CNC(=O)CCCn2ccc3cc(S(=O)(=O)N4CCCC4)ccc32)cc1	?	-21%	.	.	.	.	?	2.3%
COc1cccc(Nc2ncnc3nc[nH]c23)c1	1%	27%	13%	2%	.	1%	.	2.4%
CSc1ccccc1NC(=O)Cn1nc([N+](=O)[O-])cc1C	.	-3%	.	4%	?	-8%	-4%[46.1 µM]	.
CCC(C)NC(=O)CCc1c(C)nc2c(c(C)nn2-c2ccc(C)cc2)c1C (configuration not stated)	6%	-17%	.	.	3%[46.1 µM]	.	16%[46.1 µM]	-0.8%
COC1=C/C(=C/c2c(N)n3nc(CC(=O)N4CCCCC4)sc3nc2=O)C=CC1=O	.	2%	8%	4%	.	-13%	.	.
CCN1CC2([N+](=O)[O-])CC=C(OC)C([N+](=O)[O-])(C1)C2 (configuration not stated)	18%	-5%	-18%	7%	-2%	-4%	28%	2.9%
COC(=O)C1=C(C)NC(=O)/C1=C/c1ccc(CNS(=O)(=O)c2ccc(C)cc2)o1	.	21%	-2%	1%	-7%[46.1 µM]	2%	3%	.
Cc1cc2c3c(c1)C(C)(c1ccccc1)CC(C)(C)N3C(=O)C21C(C#N)=C(N)OC2=C1C(=O)CC(C)(C)C2 (configuration not stated)	?	?	22%	-20%	-27%	3%	?	-2.2%
COc1cccc(-c2nc(CCl)cs2)c1	.	-3%	.	1%	?	8%	3%	.
CN(C)c1ccc(NC(=O)c2cnsn2)cc1	.	-58%	1%	-1%	?	-13%	7.1µM*	.
CCn1cc(/C=C(\NC(=O)c2ccc(OC)c(OC)c2)C(=O)NCCN2CCOCC2)c2ccccc21	.	-14%	8%	-1%	.	5%	.	.
O=C(NCc1ccccc1)c1ccc(-c2ccccc2F)o1	4%	.	-43%	-13%	?	-14%	?	-7.1%
COc1cccc(C(=O)OCC(=O)Nc2ccccc2N2CCOCC2)c1	4%	-24%	-12%	-6%	-22%	-17%	7%	-5.8%
Cc1ccc(CNC(=O)Cn2c(=O)ccc3cc(S(=O)(=O)N4CCCC4)ccc32)cc1	-9%	-21%	.	.	.	.	-9%[46.1 µM]	-1.3%
CCOC(=O)C1(Cc2cccc(OC)c2)CCCN(Cc2cc(OC)c(O)c(OC)c2)C1 (configuration not stated)	.	-8%	13%	10%	.	2%	.	.
COc1ccc(CNC(=O)C2CCN(c3nc4ccccc4[nH]3)CC2)cc1OC	6%	-2%	.	.	.	.	1%[46.1 µM]	0.4%
COC(=O)c1ccc(NC(=O)C(=O)N2CCN(C(=S)Nc3ccccc3OC)CC2)cc1	2%	?	12%	-1%	?	0%	-9%	-2.6%
O=C(CSc1nc(=O)n2ccccc2n1)OCc1ccccc1	.	-17%	.	7%	0%	2%	3%	.
CC(=O)Nc1cccc(NC(=O)c2ccc3c(c2)CCN3S(C)(=O)=O)c1	.	-21%	1%	-1%	.	15%	.	.
CN(C)S(=O)(=O)c1ccc(Nc2nc(C3CC3)nc3c2nnn3Cc2ccccc2Cl)cc1	?	5µM*	6%	15%	-34%	0%	?	-18%
COc1cc(Cl)c(C)cc1NC(=O)Cn1cc(S(=O)(=O)N2CCC(C)CC2)c2ccccc2c1=O	16%	13%	.	.	-15%[46.1 µM]	.	0%[46.1 µM]	3.1%
CC1CCN(c2c(NCC3CCC(C(=O)NCCc4ccccc4)CC3)c(=O)c2=O)CC1 (configuration not stated)	-3%	-1%	-20%	-5%	-5%	-3%	-9%	-2.2%
CCn1c(CN2CCN(c3cccc(C)c3C)CC2)n[nH]c1=S	3%	-21%	12%	6%	-2%	38%	?	-7.3%
CN1C(=S)SC(/[N+]([O-])=C\c2cccs2)C1(C)C (configuration not stated)	-8%	7%	-1%	3%	18%[46.1 µM]	-9%	-1%	-2.7%
Cc1ccc(C(=O)Nc2c(-c3cccs3)nc3cc(C)ccn23)cc1	-1%	-3%	13%	4%	?	-16%	19%	-2.6%
Cc1cc(=O)oc2cc(OCC(O)CN3CCN(c4ccccc4)CC3)ccc12 (configuration not stated)	-4%	0%	-5%	-11%	?	-17%	13%	-2.8%
COc1cc(C)ccc1OCCSc1nc(-c2cccc(C)c2)nc2cc(=O)[nH]n12	3%	-29%	.	.	.	.	10%[46.1 µM]	1.5%
Cc1nc2sc(C(=O)Nc3ccccc3)c(N)c2c(C)c1[N+](=O)[O-]	.	41%[activator]	.	-5%	-36%	-4%	-22%	.
COC(=O)c1ccc(CSc2ncn[nH]2)o1	1%	1%	9%	2%	4%	-2%	9%	0.4%
CCc1ccc(NC(=O)Nc2ccc3c(c2)CCC3)cc1	.	13%	12%	3%	?	9%	28%[46.1 µM]	.
CC(C)N=C1NN=C(c2ccc(Cl)c(Cl)c2)CS1	.	-3%	.	-3%	?	-3%	-2%[46.1 µM]	.
Fc1cccc(-c2cc3nc4c(c(N5CCC6(CC5)OCCO6)n3n2)CCCC4)c1	18%	.	-41%	3%	?	-3%	3%	-12%
Cc1ccc2nc(NC(=O)c3ccccc3F)sc2c1	.	-15%	-9%	2%	?	-2%	?	.
O=C(Nc1ccc2sc3ccccc3c(=O)c2c1)c1ccccc1Cl	?	-23%	4%	-4%	?	5%	?	-2.1%
O=C(NCCCc1ccccc1)C1CC(=O)N(c2ccc3c(c2)OCCO3)C1 (configuration not stated)	-7%	-10%	-8%	-30%	?	-3%	4%	1.1%
CCCn1nc(NC(=O)c2ccco2)c2cc3ccccc3nc21	.	?	-6%	-2%	?	-5%	?	.
CCN(c1ccccc1)c1cc(C)nc2nc(C)nn12	3%	-9%	?	2%	.	4%	.	-4.2%
COc1ccc(NC(=O)NC(C)c2ccccc2)cc1 (configuration not stated)	.	1%	9%	3%	4%[46.1 µM]	4%	-4%[46.1 µM]	.
CCC(C)NC(=O)CS(=O)Cc1nc(-c2cccc(C)c2)oc1C (configuration not stated)	-19%	-4%	1%	11%	.	-9%	.	0.3%

Gathered by group: the compounds so far containing a furan ring, fused or not.
SMILES	Cruzain noTriton	StopGo reporter	NS1 function inh	SARS PLP yeast	MARV entry inh	RE007 growth inh	Lassa entry inh	Cruzain Triton
O=C(NNC(=S)NC(=O)c1ccco1)c1ccc(F)cc1	.	-3%	-99%	-4%	.	1%	.	.
COC(=O)C1=C(C)NC(=O)/C1=C/c1ccc(CNS(=O)(=O)c2ccc(C)cc2)o1	.	21%	-2%	1%	-7%[46.1 µM]	2%	3%	.
O=C(NCc1ccccc1)c1ccc(-c2ccccc2F)o1	4%	.	-43%	-13%	?	-14%	?	-7.1%
COC(=O)c1ccc(CSc2ncn[nH]2)o1	1%	1%	9%	2%	4%	-2%	9%	0.4%
CCCn1nc(NC(=O)c2ccco2)c2cc3ccccc3nc21	.	?	-6%	-2%	?	-5%	?	.

High-throughput results as filed in PubChem.
